Screening data: PubChem, several laboratories
UUG fidelity: alters start codon recognition fidelity in yeast; activity score, % at 18.7 µM; AID 602363; 350,000 tested, 0.13% active; S. cerevisiae UUG-firefly luciferase reporter, luminescence/redox ratio;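 active = replicate mean at a twofold rise or more, about +100% in these data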;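 also: firefly luciferase made from a UUG start codon reports start codon fidelity; reporter light over untreated wells divided by growth signal over untreated wells; some hits fall short of that in this replicate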
eIF4H inh: inhibitors of RNA binding by human eIF4H; Q15056; eIF4H fluorescence polarization binding assay; inhibition, % at 35 µM; 290,000 tested, 0.94% active; AID 2012;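 active = 50% or more with normal probe brightness, or confirmed in later tests; about a fifth of its hits are not listed in these tables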;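 also: calls also rest on retests at 20 µM and on dose response follow-up; 0% = protein and probe with vehicle and 100% = probe without protein; strong numbers were not always called active; many hits fall short of the cut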
CSC inhib: cancer stem cell inhibition; 300,000 tested, 1.1% active; inhibition, % at 7.5 µM; AID 2717; cancer stem cell-like cells viability, luminescence;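 active = mean at 75% or more and at least half the replicates too; tested in HMLE shEcad cells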;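 also: 0% = median of negative and 100% = median of positive control wells; the first replicate is given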
PABP FP inh: PABP-poly(A) binding inhibition | P11940 | PABP-poly(A) RNA binding, fluorescence polarization | inhibition, % at 35 µM | 290,000 tested, 1% active | AID 2014;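 active = 50% or more with normal probe brightness, or confirmed in later tests; about a fifth of its hits are not listed in these tables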;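 also: calls also rest on retests at 20 µM and on dose response follow-up; controls were probe without protein and protein plus probe with vehicle; some compounds called inactive have numbers as strong as hits; many hits fall short of the cut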
Env fusion inh: inhibitors of HIV Env-mediated cell fusion; HeLa-JRFL Env/CEM21 cell fusion, luciferase; inhibition, % at 12.3 µM; 360,000 tested, 1.1% active; AID 651610;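 active = mean replicate inhibition score of at least 50 and every replicate individually at or above 50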;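 also: 0% = plate neutral controls and 100% = maraviroc near 300 nM; one replicate is shown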
Rce1 inh: yeast Ras-converting enzyme inhibition. Q03530. AID 2563. calls only. yeast membranes, quenched prenylated peptide cleavage fluorescence. 290,000 tested, 0.27% active;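 active = fall in fluorescence gain of 50% or more versus controls, with final raw signal at or below 3038400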;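 also: plate controls were neutral control wells for no effect and wells lacking membranes for full effect; tested at 10 µM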
Target sequence (Q03530 whole entry, looked up): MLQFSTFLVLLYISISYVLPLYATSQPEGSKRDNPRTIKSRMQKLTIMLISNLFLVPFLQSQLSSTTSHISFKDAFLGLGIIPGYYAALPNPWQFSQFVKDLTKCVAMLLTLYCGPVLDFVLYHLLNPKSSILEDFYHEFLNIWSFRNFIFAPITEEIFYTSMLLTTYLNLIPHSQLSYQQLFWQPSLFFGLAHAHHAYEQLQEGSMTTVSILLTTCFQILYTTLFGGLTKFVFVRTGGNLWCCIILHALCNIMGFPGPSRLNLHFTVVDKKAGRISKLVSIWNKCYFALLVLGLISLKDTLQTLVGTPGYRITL
MT1-MMP act inh: inhibitors of human MT1-MMP activation; P50281; HT1080 RFP-PRO-GFP cells, GFP/RFP ratio fluorescence, overnight; percent of plate control window, DMSO zero; GFP/RFP ratio change, % at 20 µM; AID 651647; 360,000 tested, 0.061% active;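 active = GFP/RFP ratio change of at least 30% with cell ATP level not reduced by more than half and red fluorescence within 50% of control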; also: strong numbers were not always called active
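Assay system: RFP-PRO-GFP reporter HT1080 cells; read-out basis: GFP/RFP fluorescence ratio; benchmarks: DMSO wells and RFP-L50D-GFP cells; doses: 20 µM single dose, 1% DMSO; schedule: overnight cell settling, then overnight compound exposure, 37 °C, 5% CO2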
eIF4H inh retest: recorded beside eIF4H inh, whose call it bears; inhibition, %; compound at 20 µM; confirmation average;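 mean of two retest wells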
PABP FP inh retest: further read-out of PABP FP inh, marked with its call; inhibition, %; compound at 20 µM; confirmation repeats;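 mean of two retest wells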
MT1-MMP act inh RFP: also measured in MT1-MMP act inh; calls as there; RFP signal change, %; measured here: RFP expression control read;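 0 = vehicle wells; hits needed this value within 50% of zero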
An asterisk follows results filed as active; i = inactive; . = no result given; & = joins results of further samples. Rows were taken by chance. Share with any hit: about 3%.

SMILES | UUG fidelity | eIF4H inh | CSC inhib | PABP FP inh | Env fusion inh | Rce1 inh | MT1-MMP act inh | MT1-MMP act inh RFP | others
CC(=O)c1ccccc1NC(=O)COC(=O)CCC1CCCC1 | 17 | . | -17 | . | . | . | 0 | 4
Cc1nc2c(C(=O)N3CCCCC3)cnn2c(C)c1Cc1ccccc1F | -4 | 2 | -17 | 1 | -42 | i | 2 | -8
CCOc1ccc(C(=O)Nc2cc(S(=O)(=O)Nc3ccccc3Cl)ccc2N2CCOCC2)cc1 | . | 3 | 0 | 3 | . | i | 3 | -6
CC1CN(C(=O)CCC(=O)NCCCN2CCN(Cc3ccccc3)CC2)c2cc(Cl)ccc2O1 (stereo unspecified) | 15 | -3 | -7 | 9 | 3 | i | 0 | 0
COc1ccccc1-c1csc(C(O)c2ccc(F)c(F)c2)n1 (stereo unspecified) | -3 | . | . | . | -10 | . | -2 | -6
CC(=O)c1sc2nc(C)c3c(c2c1N)CCCC3 | -9 | -1 | 2 | -1 | 26 | i | -13 | -6
Cc1c(NC(=S)N2CCN(c3ccc(F)cc3)CC2)c(=O)n(-c2ccccc2)n1C | -26 | -6 | -12 | -3 | 16 | i | 0 | -3
COc1ccc(-c2nn(-c3ccccc3)cc2/C=N/Nc2cccc(C(=O)O)c2)cc1 | -14 | 19 | . | -10 | 0 | . | 4 | -5
Cc1cccc(-c2nc3sc(C)cc3c(=O)o2)c1 | . | 7 | 5 | 7 | 3 | i | 2 | 0
CCOc1ccc(NC(=O)N2CCCC2C(=O)NCc2ccco2)cc1 (stereo unspecified) | -9 | -13 | -14 | -1 | -7 | i | 4 | 2
CCN1CCN(Cc2ccc(NC(=O)c3ccc(C)c(/C=C/c4cnc(Nc5cc(N6CCNCC6)nc(C)n5)cn4)c3)cc2C(F)(F)F)CC1 | -19&-23 | 64 | 28 | -3 | . | i | -71&-50 | -8&-8 | eIF4H inh retest=6;PABP FP inh retest=-8
Cc1ccc(NC(=O)c2cc(F)c(F)cc2Cl)nc1 | -28 | -6 | -4 | -6 | -7 | i | 2 | 4
Cc1nn(CC(=O)OCC(=O)Nc2c(C(C)C)cccc2C(C)C)c(C)c1[N+](=O)[O-] | -5 | -3 | -10 | -2 | -19 | i | -2 | 3
COc1cccc(C(=O)COc2ccc3c(C)c(Cc4ccccc4)c(=O)oc3c2C)c1 | . | -1 | 3 | -3 | . | i | . | .
COc1ccc(CCN2C(=O)CSC2=Nc2ccc(C)cc2C)cc1OC | . | 0 | -2 | 3 | 8 | i | 13 | -10
CC(=O)Nc1cccc(NC(=O)CSc2nnc3ccccn23)c1 | -2 | . | -17 | . | 17 | . | 3 | 6
C=CCSc1n[nH]c(-c2ccccc2)n1 | 14 | -6 | 2 | -10 | . | i | 2 | 1
O=[N+]([O-])c1ccc(/C=C/c2ccncc2)cc1 | 15 | -1 | 3 | 1 | -27 | i | -2 | -1
Cc1cccc(-c2noc(CN(C(=O)/C=C/c3ccccc3Cl)C(C)C)n2)c1 | . | -5 | 18 | 26 | 29 | i | -1 | -2
Cc1ccc(-n2nc(CN3CCOCC3)c(-c3ccccc3)c2N)cc1Cl | -18 | -2 | -7 | -10 | 11 | i | -5 | -1

By substructure: the compounds so far with fluorine
SMILES | UUG fidelity | eIF4H inh | CSC inhib | PABP FP inh | Env fusion inh | Rce1 inh | MT1-MMP act inh | MT1-MMP act inh RFP | others
Cc1nc2c(C(=O)N3CCCCC3)cnn2c(C)c1Cc1ccccc1F | -4 | 2 | -17 | 1 | -42 | i | 2 | -8
COc1ccccc1-c1csc(C(O)c2ccc(F)c(F)c2)n1 (stereo unspecified) | -3 | . | . | . | -10 | . | -2 | -6
Cc1c(NC(=S)N2CCN(c3ccc(F)cc3)CC2)c(=O)n(-c2ccccc2)n1C | -26 | -6 | -12 | -3 | 16 | i | 0 | -3
CCN1CCN(Cc2ccc(NC(=O)c3ccc(C)c(/C=C/c4cnc(Nc5cc(N6CCNCC6)nc(C)n5)cn4)c3)cc2C(F)(F)F)CC1 | -19&-23 | 64 | 28 | -3 | . | i | -71&-50 | -8&-8 | eIF4H inh retest=6;PABP FP inh retest=-8
Cc1ccc(NC(=O)c2cc(F)c(F)cc2Cl)nc1 | -28 | -6 | -4 | -6 | -7 | i | 2 | 4

The listing continues:
SMILES | UUG fidelity | eIF4H inh | CSC inhib | PABP FP inh | Env fusion inh | Rce1 inh | MT1-MMP act inh | MT1-MMP act inh RFP | others
COCCNc1nc(NCc2cccc(OC)c2)c2sc(-c3ccccc3)cc2n1 | -11 | . | . | . | -10 | . | 1 | -8
CC(CCc1ccccc1)NC(=O)CN(C)Cc1ccccc1F (stereo unspecified) | -3 | 3 | 5 | -4 | 16 | i | -7 | -3
O=C(CS(=O)(=O)c1cn(Cc2ccccc2Cl)c2ccccc12)N1CCOCC1 | -7 | 51 | -3 | -5 | 22 | i | 2 | -8 | eIF4H inh retest=-10;PABP FP inh retest=3
CCOC(=O)C1CCN(CC(O)COc2ccc(C(C)=O)cc2)CC1 (stereo unspecified) | -8 | 5 | -5 | 8 | . | i | 0 | 2
Cc1ncc(CN2CCC(C(=O)Nc3ccc(Oc4cccnc4)cc3)CC2)cn1 | -14 | -4 | -17 | -6 | 30 | i | -2 | -6
CC(C)(CN=C1NS(=O)(=O)c2ccccc21)CNC(=O)CN1C(=O)c2ccccc2C1=O | 5 | -9 | 2 | -9 | . | i | -3 | -3
CC(OC(=O)C1CCN(S(=O)(=O)c2ccccc2C(F)(F)F)CC1)C(=O)N(C)Cc1ccccc1 (stereo unspecified) | 4 | -1 | 8 | 24 | . | i | 1 | -7
O=C(NCCCc1ccccc1)c1cccc(NC(=O)C2CCCCC2)c1 | -9 | . | . | . | -2 | . | 6 | 1
Cc1ccccc1CN1CCCC(C(=O)Nc2ccccc2Oc2cccnc2)C1 (stereo unspecified) | -13 | -2 | -4 | -2 | 20 | i | -2 | 3
Cc1ccccc1-n1c(=O)cc(N2CCN(C(=O)c3ccco3)CC2)[nH]c1=O | 5 | 2 | 4 | -6 | -6 | i | 1 | 2
Cc1ccc(NC(=O)C(C)OC(=O)CCNS(=O)(=O)c2ccc(C)cc2)cc1 (stereo unspecified) | 13 | -10 | . | -3 | . | i | 6 | 2
Cc1nnc(C)n1/N=C/c1ccc(-c2ccccc2Cl)o1 | -26 | -13 | -5 | 11 | -59 | i | -1 | 5
Cc1onc(-c2c(F)cccc2Cl)c1C(=O)N(C)CCc1ccccn1 | -6 | -8 | 0 | 10 | 2 | i | 0 | 5
COC(=O)C1=C(C)N(c2ccccc2)/C(=C/c2ccco2)C1=O | . | 4 | -8 | 2 | 13 | i | -4 | -2
Cc1ccc(C(=O)CC(=O)c2cc(Cl)ccc2O)cc1 | -16 | 7 | . | -7 | -55 | i | 6 | -1
NS(=O)(=O)c1ccc(CCNC(=O)C(=O)C2C(=O)Nc3ccccc32)cc1 (stereo unspecified) | -3 | 0 | 18 | 4 | 3 | i | 1 | 4
CC1C(=O)NN=C1C(=O)N/N=C\C(Br)=C\c1ccccc1 (stereo unspecified) | . | 6 | . | 6 | -216 | . | 7 | 1
N#Cc1cccc(NC(=O)CNc2cc(S(=O)(=O)N3CCOCC3)ccc2N2CCCC2)c1 | -4 | . | . | . | -12 | . | -1 | 1
Cn1c(=O)c2c(ncn2CCC(=O)N/N=C/c2ccccc2)n(C)c1=O | . | -2 | -2 | 2 | -4 | i | 1 | 1
Cc1ccc(Cn2ccc(O)c(Cc3ccccc3)c2=O)cc1 | . | 5 | -7 | 6 | -2 | i | 0 | 1
N#CC1=C(Nc2ccccc2)SC=C(c2ccc(Br)cc2)N=C1N1CCOCC1 | -7 | -1 | -14 | -1 | . | i | -2 | 1
COc1cc([C@@H]2CC=C(C(=O)O)[C@H](c3cccc(Cl)c3)N2S(=O)(=O)c2ccc(C)cc2)cc(OC)c1OC | 1 | . | 8 | . | 11 | . | -1 | 0
COc1ccc(-c2[nH]c(-c3ccc(C)cc3)nc2SCC(=O)NC2CCCC2)cc1 | 6 | 10 | 54 | -3 | 13 | i | 0 | -10
O=C(Oc1ccccc1-c1nnco1)c1ccccc1 | -9 | 10 | -8 | -5 | . | i | -4 | 6
Cc1cc(C)cc(OCC(=O)NC2CCCc3ccccc32)c1 (stereo unspecified) | . | -7 | 7 | 5 | 13 | i | -12 | 0
O=C(COC(=O)c1cc(-c2ccccc2)nc2ccccc12)Nc1ccc2c(c1)OCO2 | . | 4 | -5 | 6 | -46 | i | 0 | 5
COc1ccc(/C=C/C(=O)OCC(=O)NC(C)CCc2ccccc2)cc1 (stereo unspecified) | -12 | . | 9 | . | -21 | . | 0 | -3
Cc1ccc(C(=O)N(CN2CCCC2=O)c2ccccc2)cc1C | -10 | -2 | -16 | -12 | -36 | i | -5 | 0
CCOC(=O)c1cc2c(n(-c3ccccc3)c1=O)CC(C)(C)CC2=O | . | -1 | . | 7 | -20 | i | 5 | 5
COc1cc(Br)cc(/C=C/c2ccc3cccc(O)c3n2)c1O | -15 | 11 | 92* | 14 | -10 | i | -12 | -6
CC1CN(C(=S)NC(=O)C2CCCCC2)CC(C)O1 (stereo unspecified) | -25 | 3 | -14 | 2 | -4 | i | 1 | 4
COc1cc(/C=N\Nc2nc3ccccc3o2)cc(OC)c1OC | -6 | -12 | 0 | -9 | 21 | i | 16 | -8
COc1cc(C)c(S(=O)(=O)NCc2cccnc2)cc1C | -22 | 12 | -1 | 6 | -18 | i | 3 | 0
Cc1cc(=O)[nH]c(SCc2nc3ccc([N+](=O)[O-])cc3[nH]2)n1 | . | 11 | -5 | 3 | 14 | i | 1 | 1
C=CCSc1nc2sc3c(c2c(=O)n1CC)CCc1ccccc1-3 | -2 | 6 | 16 | 5 | 3 | i | 3 | 4
COc1ccc(C(C)=O)cc1CSc1nncn1-c1ccccc1 | . | -1 | 4 | 1 | -12 | i | 0 | 3
CC(=O)c1cccc(N(CC(=O)Nc2cccnc2)S(C)(=O)=O)c1 | -7 | -1 | -4 | 3 | . | i | -1 | -3
Nc1cccc(S(=O)(=O)Nc2ccc(SC(F)F)cc2)c1 | -7 | -1 | -6 | -9 | 3 | i | 6 | 2
CCC1=NN2C(=N)/C(=C/c3ccc(OS(=O)(=O)c4ccc(C)cc4)c(OC)c3)C(=O)N=C2S1 | -14 | 12 | -4 | 20 | -6 | . | 2 | 4
CC(C)COc1ccc(C(=O)Nc2ccc(NC(=O)c3ccco3)c(Cl)c2)cc1 | -15 | 2 | . | -8 | . | i | 0 | 0
CCCc1cc(=O)[nH]c(SC(C)C(=O)Nc2ccc3c(c2)OCCO3)n1 (stereo unspecified) | -16 | . | 8 | . | 3 | . | -1 | 4
COc1ccc(C(=O)Nc2ccc(/C(C)=N/NC(=O)c3ccncc3)cc2)cc1 | 5 | -4 | -12 | -16 | -51 | i | 0 | 5
COc1ccc(N2CC(=O)N(c3ccccc3)C2=S)cc1 | -1 | -2 | 5 | 20 | 2 | i | 0 | 5
CC(=O)Nc1sc(NC(=O)c2ccccc2)nc1-c1cccs1 | -11 | 2 | -5 | 2 | . | i | 13 | 0
COc1cccc(C2=CC(=O)CCC2)c1OC | -25 | . | -9 | . | -65 | i | 1 | 4
O=C(CCNc1cc(Cl)cc(Cl)c1)c1cccs1 | -25 | -2 | 17 | 4 | 2 | i | 0 | 4
CCCCC(=O)NC1(C(F)(F)F)NC(=O)N(C)C1=O (stereo unspecified) | . | 9 | -7 | 8 | 11 | i | -2 | 0
Cc1ccc(NC(=O)CCSCCC(=O)Nc2ccc(C)c(C)c2)cc1C | -18 | -10 | . | 0 | -12 | i | -14 | -3
O=[N+]([O-])c1ccc(C(O)CNC(=S)Nc2ccccc2)cc1 (stereo unspecified) | . | -1 | -9 | -7 | 12 | i | 3 | 0
